Compound activity deposited in PubChem by National Center for Advancing Translational Sciences (NCATS).
D2 potentiator – Beta-Arrestin HTS for Positive Allosteric Modulators of the Human D2 Dopamine Receptor: Potentiators; 360,000 compounds, 0.23% hits; D(2) dopamine receptor (Homo sapiens), P14416; potentiation, % (concentration not given with the values); DiscoveRx D2 beta-arrestin cells, luminescence, 90 min; 100% = 57 uM dopamine signal; AID 624464, 2012; active = potentiation of 50% or more; inconclusive = 30% to 50%; inactive = 30% or less;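 also: tested on top of an EC20 dose of dopamine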
Target sequence (P14416 whole entry, looked up): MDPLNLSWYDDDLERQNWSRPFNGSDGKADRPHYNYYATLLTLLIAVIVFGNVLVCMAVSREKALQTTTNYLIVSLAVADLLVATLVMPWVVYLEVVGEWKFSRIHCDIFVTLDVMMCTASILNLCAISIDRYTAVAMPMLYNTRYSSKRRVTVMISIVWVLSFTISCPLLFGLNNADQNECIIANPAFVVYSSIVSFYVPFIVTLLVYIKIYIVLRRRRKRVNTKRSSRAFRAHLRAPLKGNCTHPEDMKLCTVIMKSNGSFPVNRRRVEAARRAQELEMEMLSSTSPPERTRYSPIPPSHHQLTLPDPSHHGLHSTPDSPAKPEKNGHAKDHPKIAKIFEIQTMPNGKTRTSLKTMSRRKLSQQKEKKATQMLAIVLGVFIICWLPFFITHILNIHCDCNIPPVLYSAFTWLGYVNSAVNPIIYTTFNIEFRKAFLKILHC
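D2 cells co-treated with compound plus 50 nM dopamine (EC20) for 90 min at 37 deg C to detect potentiation. Beta-arrestin recruitment was read as enzyme-fragment luminescence after 1 h at ambient temperature. Full response was set by 57 uM dopamine.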
D2 ag – Beta-Arrestin HTS for Positive Allosteric Modulators of the Human D2 Dopamine Receptor: Agonists. D(2) dopamine receptor (Homo sapiens), P14416. DiscoveRx PathHunter D2 beta-arrestin, luminescence, 90 min; 100% = 57 uM dopamine signal. activation, % (no concentration beside the values). 360,000 compounds, 0.084% hits; in the data active = activation above about 40%; inconclusive = about 15% to 40%; inactive = below about 15%; also: compound concentration not given in the record; the text of the record calls up to 30% inactive
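DiscoveRx PathHunter D2 beta-arrestin cells (2,100/well) attached overnight, then compound-stimulated 90 min at 37 C in HBSS/10 mM HEPES/0.1% Tween-20 buffer; beta-galactosidase complementation read by luminescence after 1 h at ambient temperature. Dopamine 57 uM final (EC100) as control.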
PINK1 expr mod – A Quantitative High throughput Screen to Identify Chemical Modulators of PINK1 Expression; PINK1 immunofluorescence, high-content cytometry, 24 h; Potency, µM (series often up to 76.6 µM), for the others: top-dose activation (PINK1 increase), actives largely listed as activators; 410,000 compounds, 0.2% hits; AID 624263, 2012; active = well fitted activation curve with a large enough effect; inconclusive = small, poorly fitted or top-dose-only effect; inactive = flat fitted curve, though single readings scatter; cell line not stated here;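 also: potency is read from the fitted curve at half-maximal effect; % of control where 0% means no effect; nearly all actives have a fitted effect of over 65% in size; a mitochondrial uncoupler was the plate control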
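Stable cell line treated 24 h with compounds at 5 concentrations (CCCP controls), then fixed and immunostained for PINK1 plus nuclear and cell stains; PINK1 immunofluorescence quantified by laser-scanning microplate cytometry.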
TRPML1 blocker – qHTS for Inhibitors of the Human Mucolipin Transient Receptor Potential 1 (TRPML1); 390,000 compounds, 0.02% hits; AID 624415, 2012; TRPML1-inducible cells, Ca2+ dye fluorescence, FDSS; hits give low values; inhibition of EC80 agonist-evoked calcium signal; activity change, negative = inhibition, % (concentration not given with the values); Mucolipin-1 (Homo sapiens), Q9GZU1; in the data active means activity change below about -50%; inconclusive means about -30% to -50%; inactive means above about -30%;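 also: stimulus is agonist 54-4 at its EC80 concentration; % is scaled to controls: 0 for no effect and ±100 for the full control effect; the text of the record puts the active cut at -80%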
Target sequence (Q9GZU1 whole entry, looked up): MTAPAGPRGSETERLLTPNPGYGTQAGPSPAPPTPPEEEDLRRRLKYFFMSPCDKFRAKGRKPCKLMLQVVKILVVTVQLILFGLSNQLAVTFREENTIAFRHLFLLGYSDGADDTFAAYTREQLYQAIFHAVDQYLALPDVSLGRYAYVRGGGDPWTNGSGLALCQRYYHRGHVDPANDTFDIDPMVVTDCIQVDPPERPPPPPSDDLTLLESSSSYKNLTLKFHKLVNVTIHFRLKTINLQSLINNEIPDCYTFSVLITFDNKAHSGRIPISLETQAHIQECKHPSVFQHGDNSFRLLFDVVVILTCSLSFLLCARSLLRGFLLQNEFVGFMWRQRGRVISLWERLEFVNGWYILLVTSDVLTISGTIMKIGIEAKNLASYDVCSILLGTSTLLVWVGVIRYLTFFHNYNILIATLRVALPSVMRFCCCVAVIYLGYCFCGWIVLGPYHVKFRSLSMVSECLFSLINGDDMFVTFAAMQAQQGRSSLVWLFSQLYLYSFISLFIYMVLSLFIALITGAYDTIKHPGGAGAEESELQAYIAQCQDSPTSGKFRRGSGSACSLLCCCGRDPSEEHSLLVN
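Calcium fluorescence in TRPML1-DL cells induced overnight with Tet: a 110 s read after compound pin addition, then a 110 s antagonist read after challenge with 54-4 at 4 uM final (EC80).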
TRPML1 ag – qHTS for Agonists of the Human Mucolipin Transient Receptor Potential 1 (TRPML1); TRPML1-expressing cells, Ca2+ dye fluorescence, FDSS; host cell line not named in the record; reference of the full effect not given here; activation, % (concentration not given with the values); 410,000 compounds, 0.12% hits; in the data active = activation above about 50%; inconclusive = about 30% to 50%; inactive = below about 30%; also: 0% is about no effect; the text of the record puts the active cut at 80%
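Kinetic FDSS Ca2+ read in Tet-induced TRPML1-DL cells (ABD Ca8 dye plus quencher, 45-90 min RT loading): baseline, then compound, then 110 s agonist window; EC80 agonist 54-4 at 4uM final added afterwards for a 110 s antagonist window.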
Six1-Eya2 inh – qHTS Assay for Inhibitors of the Six1/Eya2 Interaction. Homeobox protein SIX1 (Homo sapiens) + Protein phosphatase EYA2 (Homo sapiens), …. AlphaScreen GST-Six1/His-Eya2 binding, biochemical; hits give low values; control for the full effect not named in the record. activity change, % (no concentration beside the values). 360,000 compounds, 0.56% hits; in the data active = activity change below about -65%; inconclusive = about -30% to -65%; inactive = above about -30%; also: % is scaled to controls: 0 for no effect and ±100 for the full control effect
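GST-Six1 + His-Eya2 (5X stock: 250/500 nM); Tris pH 8.0, 300 mM NaCl, 0.05% BSA, 0.02% Tween 20; GSH donor/Ni acceptor beads; 1 h 37 °C dark; AlphaScreen readout.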
An asterisk follows results filed as active; ? = inconclusive; / = not tested or not shown; [ ] = another dose, or the depositor's remark. Hits appear at their usual frequency; 1% or so of the library scored in one or more.

SMILES	D2 potentiator	D2 ag	PINK1 expr mod	TRPML1 blocker	TRPML1 ag	Six1-Eya2 inh
O=C(Cc1ccccc1[N+](=O)[O-])NCCC1=CCCCC1	-1	4.5	-0.3%	-17	-0.6	-16
Cc1[nH]c2ccccc2c1N=Nc1ccccc1C(=O)O	-19	-2.6	1.3%	17	1.5	?
COC(=O)c1cc2c(ccn2-c2ccc(F)cc2)n1C(C)C	-4	-3.2	1.1%	6	-0.6	?
Clc1ccccc1SCc1nc2ccccc2[nH]1	-1	-0.3	0.3%[38.3 µM]	-9	-0.3	3
C[C@H](CO)N1C[C@H](C)[C@@H](CN(C)Cc2ccc(C(=O)O)cc2)Oc2c(NC(=O)Cc3ccccc3)cccc2C1=O	10	5.7	2.4%	2	-0.3	-2
CC1Cc2cc(C(=O)O)ccc2O1 (configuration not stated)	1	-0.7	0.9%	2	-1.5	0
N#CC1=C(N)C(C#N)(C#N)[C@H](c2cccnc2)[C@H]2CN(C(=O)OCc3ccccc3)CC=C12	-9	-9.9	0.5%	13	-0.8	3
O=C(CCCOc1ccc(Cl)cc1Cl)Nc1cc(S(=O)(=O)N2CCOCC2)ccc1N1CCOCC1	-29	-2.2	2.0%	-6	2.0	-7
Cn1nnnc1NCc1cccc(Cl)c1Cl	-1	0.1	2.0%	-8	-1.2	-2
Cn1nc(C(=O)NCCc2ccc(S(N)(=O)=O)cc2)c2ccccc2c1=O	-8	-4.1	1.4%	-3	-0.7	1
CCCCCCc1nc2nc(Cl)c(Cl)nc2[nH]1	-4	-2.5	8.9%	-16	-0.2	4
CCOc1ccc(N(CC(=O)NC(C)(C)C)C(=O)c2ccco2)cc1	-17	-3.5	-0.2%	-2	-0.6	0
O=C(CSc1nc2ccccc2s1)NCCOc1ccccc1	-1	0.0	-1.3%	-14	1.4	0
CCNC(=S)N1CCN(c2nc(-c3cccc(OC)c3)cs2)CC1	-4	-2.6	0.6%	?	-0.3	-18
COc1ccc(Nc2cc(C(=O)NCCc3ccc(C)cc3)c3ccccc3n2)c(OC)c1	/	/	9.7%	9	2.2	/
CC(C)CNCC1OCc2ccccc2CO1	-1	-1.7	2.5%	18	0.6	0
CCOC(=O)C1C(c2ccc(C(=O)O)cc2)NC(=O)NC1(O)C(F)(F)F (configuration not stated)	-4	0.0	-0.4%	19	0.6	11
COc1ccc(CCC(=O)Nc2cccc(S(=O)(=O)N(C)C)c2)cc1OC	1	-11	-0.6%	5	-0.6	15
O=C(CN1C(=O)NC2(CCCCCC2)C1=O)Nc1ccccc1[N+](=O)[O-]	2	2.5	1.9%	27	0.0	-2
COc1ccc(Cl)cc1NC(=O)c1c(NCc2ccc(C)o2)sc2c1CCC(C)C2 (configuration not stated)	/	/	2.3%	16	0.4	/
COc1ccc(NC(=O)CSc2nnc(-c3cccnc3)n2Cc2ccco2)c(OC)c1	-15	-1.2	-1.5%	1	-1.8	-8
CC(=O)OCC=C1CCC2C3CCC4=CC(=O)CCC4(C)C3C(O)CC12C (configuration not stated)	-3	4.7	-3.9%	15	2.5	-19
CC(=O)OC(C)(C)C#CCN1CCCC1	4	2.1	/	1	0.3	5
O=C(CCN1CCCCC1)NNC(=S)NC(=O)c1ccc(Br)cc1	-26	-3.8	2.1%	-3	-0.2	?
Cc1cc(N2C(=O)C3C4CC(C(Br)C4Br)C3C2=O)no1 (configuration not stated)	-6	-3.0	0.7%	7	-0.1	-15
SMILES	D2 potentiator	D2 ag	PINK1 expr mod	TRPML1 blocker	TRPML1 ag	Six1-Eya2 inh
COc1ccc(C(CNCC(=O)Nc2ccccc2F)N(C)C)cc1 (configuration not stated)	-8	-1.2	-2.2%	-1	1.9	-1
CCc1ccc2c(c1)CCCN2C(=O)c1ccccc1C(=O)O	-24	-1.3	4.7%[38.3 µM]	7	-0.6	-13
COc1ccc(CNC(=O)c2cc(S(=O)(=O)N3CCCCC3)ccc2Cl)cc1OC	6	-0.6	-0.7%	7	-0.4	19
Cn1c(CCCOc2ccc(Cl)cc2Cl)n[nH]c1=S	-8	-3.6	0.0%	-2	-0.5	1
CCOc1ccc(-c2cc(C(=O)N/N=C/c3ccc(O)cc3)c3ccccc3n2)cc1	-1	6.1	7.2%	15	2.8	1
CCN(CC)CCNC(=O)c1ccc(CSc2nc3ccncc3n2Cc2cccc(F)c2)cc1	/	/	-1.2%	-4	0.2	/
COc1ccc(C2CC(=O)Nc3cc(C)c(C)cc32)c(OC)c1OC (configuration not stated)	-7	-3.3	14%	38	2.3	1
O=C(COc1cccnc1[N+](=O)[O-])NCc1ccc(F)cc1	6	-13	2.0%	/	/	4
CCc1nn(C(C)C(=O)NCCN2CCN(c3cccc(C)c3C)CC2)c(=O)c2cc3occc3n12 (configuration not stated)	-28	1.1	-1.0%	40	0.2	-18
Cc1ccc(NC(=O)Cn2c(=O)c(C)nc3ccccc32)cc1	-4	-0.8	4.3%	-7	-0.2	12
CCc1ccc(OC(=O)CN2C(=O)c3ccccc3C2=O)cc1	-4	-0.8	-0.6%	4	-0.3	8
O=C(NNC1=NCCC1)c1cccc(S(=O)(=O)N2CCCC2)c1	-6	0.5	-0.6%	-6	-0.3	-7
Cc1nc2n[nH]c(N)c2c2c1CCCC2	-13	-2.6	0.5%	-5	-0.5	0
COc1ccccc1-n1cc(-c2ccc(Br)cc2)[nH]c1=S	0	3.5	7.3%	1	1.0	-24
CC(=O)C1C(c2ccc(C)cc2)c2c(noc2C)CC1(C)O (configuration not stated)	-10	-2.3	-0.2%	36	1.1	-1
COC(=O)c1ccc2c(=O)n(Cc3ccco3)c(SCC(=O)Nc3ccccc3Cl)nc2c1	-6	-5.6	0.5%	0	-0.6	-2
CCC(C)NC(=O)CC(c1ccc(OC)cc1)n1cccc1 (configuration not stated)	1	-1.2	0.0%	-4	3.3	-3
CN(Cc1ccccc1)S(=O)(=O)c1ccc(OCC(=O)NCc2cccnc2)cc1	-7	-3.3	4.0%	-4	-1.4	-16
c1ccc(-c2csc3ncn4nnnc4c23)cc1	3	-3.7	-0.1%	5	-0.6	3
N#Cc1ccc(CSc2nnc(COc3ccccc3)n2-c2ccccc2)cc1	-11	-2.7	?	14	3.4	-2
Cc1cccc(C(=O)NN2S(=O)(=O)c3ccccc3S2(=O)=O)c1	2	-0.4	-0.3%	-7	-0.7	0
CCOC(CCn1c(SCc2ccc([N+](=O)[O-])cc2)nc2ccccc2c1=O)OCC	-18	-3.6	3.4%	24	3.1	-12
Cc1cc(OCC(=O)OCC(=O)N(C)C2CCS(=O)(=O)C2)ccc1Cl (configuration not stated)	-4	0.0	-0.3%	?	0.2	-1
Cc1oc(-c2ccc(Cl)cc2)nc1CS(=O)CC(=O)NCCCN1CCN(Cc2ccccc2)CC1 (configuration not stated)	-29	1.8	-1.1%	-8	0.4	-12
O=C(NCc1cccnc1)C(=O)NCC1OCCN1S(=O)(=O)c1cc(F)ccc1F (configuration not stated)	16	1.0	4.8%	3	-0.4	4

Some of these compounds in order of length of the SMILES, smallest number first.
SMILES	D2 potentiator	D2 ag	PINK1 expr mod	TRPML1 blocker	TRPML1 ag	Six1-Eya2 inh
CCc1ccc(OC(=O)CN2C(=O)c3ccccc3C2=O)cc1	-4	-0.8	-0.6%	4	-0.3	8
COc1ccc(C2CC(=O)Nc3cc(C)c(C)cc32)c(OC)c1OC (configuration not stated)	-7	-3.3	14%	38	2.3	1
N#Cc1ccc(CSc2nnc(COc3ccccc3)n2-c2ccccc2)cc1	-11	-2.7	?	14	3.4	-2
Cc1oc(-c2ccc(Cl)cc2)nc1CS(=O)CC(=O)NCCCN1CCN(Cc2ccccc2)CC1 (configuration not stated)	-29	1.8	-1.1%	-8	0.4	-12

(next part)
SMILES	D2 potentiator	D2 ag	PINK1 expr mod	TRPML1 blocker	TRPML1 ag	Six1-Eya2 inh
CC(O)CNCCCOc1ccccc1OCc1ccccc1 (configuration not stated)	-16	-2.6	0.4%	4	0.2	11
CC(NC(=O)Nc1ccccc1)C(c1cccs1)N1CCN(C)CC1 (configuration not stated)	-10	-3.6	1.3%	-7	0.1	-2
CCCS(=O)(=O)NC(=O)C1(C)CCN(C(=O)c2ccccc2OC)C1 (configuration not stated)	-6	-3.9	-0.7%	/	-0.2	11
CN(C(=O)CSc1nnc(-c2ccc(C(C)(C)C)cc2)n1C)C1CCS(=O)(=O)C1 (configuration not stated)	-2	-1.7	0.0%	10	-0.4	-2
N#CCC(=O)Nc1ccccc1C(=O)O	-22	-1.1	0.3%	6	-0.8	0
CC(O)Cc1cn(CC(=O)N2CCN(C(=O)OC(C)(C)C)CC2)nn1 (configuration not stated)	-6	-1.0	-0.8%	-13	-0.4	5
Clc1ccc(Cn2ccc(-c3ccc4c(c3)OCO4)n2)cc1Cl	-9	-0.7	-6.5%[38.3 µM]	13	4.2	15
Cc1ccc(CNC(=O)CSC2=Nc3ccccc3N=C(c3ccc(F)cc3)C2)cc1	/	/	6.8%	4	-0.2	/
Cc1ccc(C(=O)N2CCC(N3CCC(C(=O)N4CCOCC4)CC3)CC2)cc1C	13	-1.3	3.9%	-1	0.0	-3
Cc1ccc(NC2(C(F)(F)F)N=C(c3ccccc3)NC2=O)nc1 (configuration not stated)	-20	1.8	1.3%	6	-0.5	0
CNC(=O)c1ccccc1NC(=O)c1ccco1	8	-4.4	-1.8%	17	-1.4	-3
O=C1C(=O)N(CC2COc3ccccc3O2)c2ccccc21 (configuration not stated)	-25	-16	-1.6%	17	3.0	-2
CCN(c1ccc(NC(=O)c2ccc(N3CCCC3=O)cc2)cc1)C(C)C	-13	-3.9	16%	-3	0.6	-10
Cc1ccc(S(=O)(=O)NC(=O)c2cccc(Br)c2)cc1	8	-6.4	-1.3%	-13	0.0	-4
Clc1ccc(CCNc2ncnc3c2c(-c2ccccc2)cn3-c2ccccc2)cc1	/	/	1.6%	-1	?	/
CCc1ccc2ncc(S(=O)(=O)c3ccc(Cl)cc3)c(N3CCN(CC)CC3)c2c1	/	/	1.2%	-9	-0.4	/
CC(C)c1ccc(S(=O)(=O)Nc2ccc(SC(F)F)cc2)cc1	8	-0.6	27%	4	-0.8	1
COc1cc(=O)n2c(-c3ccccc3)csc2n1	-2	-2.9	-2.1%	16	-0.4	-1
COc1ccc(N2CCN(CC(=O)c3ccccc3)CC2)cc1	-5	-3.4	0.7%	27	0.1	-6
COCCn1c(SCc2cccnc2)nnc1-c1c[nH]c2ccccc12	-2	-0.6	-0.4%	11	-0.5	-1
COc1cc(OC)c(Nc2cc(C)nc3ncnn23)cc1Cl	/	/	1.9%	13	0.5	/
